Screening data as filed in PubChem BioAssay.
Cruzain inh noDet = inhibitors of Trypanosoma cruzi cruzain without detergent. Potency, µM, without a hit: max response, negative = inhibition, hits mostly inhibitors. 200,000 tested, 2.3% active. P25779. purified cruzain, Z-FR-AMC fluorescence, no detergent. AID 1476; active means well fitted curve in the direction sought with a large enough effect; inconclusive means small, poorly fitted or top-dose-only effect, or another doubt; inactive means no such curve, though single readings can be large; an effect the other way counts as inactive or inconclusive;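 further: plate controls were enzyme without inhibitor for no effect and buffer without enzyme for full effect; nearly all actives have a fitted effect of over 40% in size; top concentration of the series not given in the record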
Target sequence (P25779 123-467 limits assumed): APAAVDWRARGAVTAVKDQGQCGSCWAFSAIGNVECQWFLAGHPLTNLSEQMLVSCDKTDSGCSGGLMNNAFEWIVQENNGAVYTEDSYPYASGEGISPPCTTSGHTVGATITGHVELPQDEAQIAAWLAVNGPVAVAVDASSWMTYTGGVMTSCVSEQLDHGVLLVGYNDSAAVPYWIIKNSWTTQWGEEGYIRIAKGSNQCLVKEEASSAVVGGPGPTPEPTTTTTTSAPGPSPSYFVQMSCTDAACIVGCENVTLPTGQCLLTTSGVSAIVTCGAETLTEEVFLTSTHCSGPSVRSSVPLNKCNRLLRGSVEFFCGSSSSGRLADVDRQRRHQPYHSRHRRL
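Detergent-free condition (0.00005% Triton X-100) in acetate buffer pH 5.5 with DTT. 1.5 nM enzyme and compound were pre-mixed 15 min, then 2 uM Z-FR-AMC substrate added; reaction progress from fluorescence change between first and third reads (60 s).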
RE007 growth inh = less growth of the S. pombe RE007 Vpr strain; S. pombe RE007 Vpr strain, BacTiter-Glo ATP luminescence, 24 h; control for the full effect not named in the record; Potency, µM (series often up to 92.2 µM), without a hit: at the highest dose activity change, negative = less growth; 360,000 tested, 0.21% active; active = well fitted falling curve with a large enough effect; inconclusive = small, poorly fitted or top-dose-only effect; inactive = no such curve, though single readings can be large or run the other way;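 further: on the % scale 0 is the no-effect control and ±100 the full control effect; nearly all actives have a fitted effect of over 50% in size; the assay follows cell death caused by Vpr and the record does not say whether a fall means rescue or toxicity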
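Fission yeast strain RE007, carrying one chromosomally integrated HIV-1 vpr copy, was seeded at OD 0.01 in PMG+AL medium with 23 nL pinned compound. After 24 h at 30 °C and 99% humidity, viability was read by BacTiter-Glo luminescence.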
StopGo reporter = lowers the luciferase signal of an FMDV 2A StopGo reporter | human cells with a luciferase reporter of 2A StopGo recoding; control for the full effect not named in the record | Potency, µM (highest dose often 57.9 µM), for inactives: at the top dose signal change, negative = less light | 410,000 tested, 1.2% active | AID 1159524; active = well fitted falling curve with a large enough effect; inconclusive = small, poorly fitted or top-dose-only effect; inactive = no such curve, though single readings can be large or run the other way; tested in HEK293T cells; further: on the % scale 0 is the no-effect control and ±100 the full control effect; nearly all actives have a fitted effect of over 45% in size; luciferase light after 4 h
SARS PLpro yeast = SARS-CoV PLP inhibition in yeast; 330,000 tested, 0.19% active; Potency, µM (highest dose often 32.9 µM), inactives show top-dose activity, positive = growth rescue; AID 485353; S. cerevisiae expressing SARS-CoV PLpro, growth rescue; control for the full effect not named in the record; further: 0% is about no effect; nearly all actives have a fitted effect of over 55% in size; growth read by luminescence after 48 h
NS1 function inh = inhibitors of influenza NS1 protein function. 270,000 tested, 0.4% active. S. cerevisiae slowed by influenza A NS1, growth recovery by OD600. Potency, µM (highest dose often 46.1 µM), for the others: top-dose activity, positive = more growth; further: actives are rising curves; nearly all actives have a fitted effect of over 50% in size
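S. cerevisiae expressing influenza A NS1, grown in glucose, washed, then diluted 1:100 into pH 6.0 -URA galactose medium with 23 nl compound. Growth recovery read as OD600; NS1-free strain serves as control.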
Cruzain inh Det = blocks cruzain activity in presence of Triton detergent; Potency, µM, without a hit: max response, negative = inhibition, actives largely listed as inhibitors; AID 1478; purified cruzain, Z-FR-AMC fluorescence, 0.01% Triton; 200,000 tested, 0.43% active; active means well fitted curve in the direction sought with a large enough effect; inconclusive means small, poorly fitted or top-dose-only effect, or another doubt; inactive means no such curve, though single readings can be large; an effect the other way counts as inactive or inconclusive;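 further: plate controls were neutral wells for no effect and buffer without enzyme for full effect; nearly all actives have a fitted effect of over 40% in size; top concentration of the series not given in the record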
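Compounds were screened in titration against cruzain (1.5 nM) with 0.01% Triton X-100 to counter colloidal aggregation. Activity was the AMC fluorescence increase over 60 s after adding 2 uM Z-FR-AMC at pH 5.5.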
LASV entry inh = inhibitors of Lassa virus binding or cell entry | Lassa virus pseudotype entry inhibition, cell reporter; control for the full effect not named in the record | Potency, µM (top dose mostly 37.9 µM), inactives show top-dose activity change, negative = inhibition, usual class: inhibitors | 300,000 tested, 1.2% active | AID 540256; active means well fitted inhibition curve with a large enough effect; inconclusive means small, poorly fitted or top-dose-only effect, or effect the other way; inactive means flat fitted curve, though single readings scatter; tested in HEK293 cells; further: on the % scale 0 is the no-effect control and ±100 the full control effect; nearly all actives have a fitted effect of over 50% in size; luciferase read-out
MARV entry inh = inhibitors of Marburg virus binding or cell entry | Marburg virus pseudotyped entry inhibition, cell reporter; control for the full effect not named in the record; about a third of the inactives were read at about 46 µM | Potency, µM (highest dose often 37.8 µM), inactives show at the top dose activity change, negative = inhibition, hits mostly inhibitors | 300,000 tested, 1.8% active; active = well fitted inhibition curve with a large enough effect; inconclusive = small, poorly fitted or top-dose-only effect, or effect the other way; inactive = flat fitted curve, though single readings scatter; tested in HEK293 cells; about a fifth of its hits are not listed in these tables; further: on the % scale 0 is the no-effect control and ±100 the full control effect; luciferase read-out
Active calls of the source: *; ? = inconclusive; . = no result given; [ ] = dose if it differs, or a comment. Unless noted, the call rests on the fitted dose curve; in most records, active means well fitted rising curve with a large enough effect; inconclusive means small, poorly fitted or top-dose-only effect; inactive means no such curve, though single readings can be large or run the other way. Potency means the concentration at half of the fitted maximal effect.

SMILES	Cruzain inh noDet	RE007 growth inh	StopGo reporter	SARS PLpro yeast	NS1 function inh	Cruzain inh Det	LASV entry inh	MARV entry inh
C[C@H](NC(=O)Cc1cccc2ccccc12)C(=O)N1CCOCC1	.	-7%	5%	-10%	.	.	10%[46.1 µM]	14%[46.1 µM]
COc1ccc(NC(=O)c2ccccc2N(Cc2ccccc2)S(C)(=O)=O)cc1	.	-4%	-5%	3%	-8%	.	.	.
COCCN1CCCC(CNCc2cn(C)nc2-c2ccc(Oc3ccccc3)cc2)C1 (stereo not given)	.	-16%	-12%	0%	2%	.	.	.
Cc1cc(=O)n2nc(N3CCCC(C(=O)NCc4ccccc4C)C3)sc2n1 (stereo not given)	.	-12%	?	0%	7%	.	.	.
O=C(c1cn(-c2ccccc2)nc1-c1cccnc1)N1CCCC(C(F)(F)F)C1 (stereo not given)	.	-19%	4%	0%	.	.	-18%	4%
O=C(O)COCC(=O)N1CCCN(c2ccc(C(F)(F)F)cn2)CC1	.	6%	-12%	-2%	2%	.	0%[46.1 µM]	2%[46.1 µM]
CCOC(=O)Cc1csc(NC(=O)CCCCCN2C(=O)c3ccccc3C2=O)n1	-3%	9%	.	22%	?	1.3%	2%	21%
COCCn1c(=O)[nH]c2cc(C(=O)NC(C)C)ccc2c1=O	2%	7%	-10%	0%	0%	0.0%	2%	-3%
COc1ccccc1C1CCN(Cc2ccc3ccccc3c2)CC1	.	-12%	?	0%	-5%	.	7%	7.1µM*
CCOc1ccc(CNCc2ccccc2Cl)cc1	.	-9%	36%[activator]	0%	2%	.	.	.
COC(=O)c1cc([N+](=O)[O-])c(-n2ccnc2)c([N+](=O)[O-])c1	12%	-22%	?	-4%	-3%	-4.9%	-7%	-17%
O=C(Nc1ccc(Cl)cc1Cl)c1ccc2ncsc2c1	.	-4%	24%	-1%	-6%	.	.	.
CCCCCNC(=O)c1ccc2c(=O)n(CCCOCC)c(=S)[nH]c2c1	.	-19%	-2%	-1%	.	.	2%[46.1 µM]	8%[46.1 µM]
CC(C)(C)C(=O)OCc1cc(=O)n2nc(C3CCCCC3)sc2n1	0%	.	36%[activator]	.	.	-3.7%	17%[46.1 µM]	.
COc1ccccc1-c1sc2ccccc2c1-c1ccc(C(C)=O)cc1	.	6%	20%	-11%	-2%	.	.	.
CC(=O)c1cccc(CN2CCC(n3nccc3NC(=O)CCOc3ccccc3)CC2)c1	.	0%	-15%	0%	-6%	.	-11%	-4%
COc1cc(C2/C(=C(\O)c3ccc4c(c3)CC(C)O4)C(=O)C(=O)N2c2nnc(C)s2)cc(OC)c1OC (stereo not given)	.	4%	-14%	-6%	12%	.	.	.
CCCCCc1ccc(S(=O)(=O)Nc2cc(C)ccn2)cc1	.	-4%	60%[activator]	0%	3%	.	-2%	-19%
CN1CCN(S(=O)(=O)c2cccc(S(=O)(=O)c3ccc(Cl)cc3)c2)CC1	4%	-1%	-20%	.	-5%	2.8%	4%	0%
O=S(=O)(NC1CCCCC1)c1ccc(N2CCOCC2)nc1	.	-9%	12%	1%	2%	.	.	.
O=C(Cn1c(COc2ccccc2)nc2ccccc21)Nc1cccc(Cl)c1	?	5%	24%	-5%	15%	-12%	-19%	?
COc1ccc(N2CCN(C(=O)c3cc4c(=O)n(Cc5cccnc5)ccc4nc3C)CC2)cc1	-12%	.	-14%	.	.	-5.8%	-28%[46.1 µM]	.
CCCCn1c(N)c(N(CCOC)C(=O)COC(=O)CCOc2ccccc2)c(=O)[nH]c1=O	.	-12%	-21%	.	.	.	-1%	23%
NS(=O)(=O)c1cc2c(cc1Cl)N[C@@H]([C@@H]1C[C@@H]3C=C[C@H]1C3)NS2(=O)=O	10%	.	-17%	.	.	-0.7%	.	?
CC(C)Cc1nc(N2CCN(C(=O)c3ccco3)CC2)c(C#N)c2c1CCC2	-9%	-16%	25µM*	-13%	-8%	-20%	?	?
SMILES	Cruzain inh noDet	RE007 growth inh	StopGo reporter	SARS PLpro yeast	NS1 function inh	Cruzain inh Det	LASV entry inh	MARV entry inh
Cc1cccc(NC(=O)c2cccc(N3C(=O)CCC3=O)c2)c1	.	-4%	9%	29%	4%	.	1%[46.1 µM]	10%[46.1 µM]
O=C1C2CCCCN2C(=O)N1CCCCN1CCN(c2ccccc2Oc2ccccc2)CC1 (stereo not given)	.	4%	?	17%	-8%	.	.	.
Cc1ccc(NC(=O)CSc2nc(=O)n(Cc3ccccn3)c3c2CCC3)cc1F	16%	.	-24%	.	.	-3.9%	-8%[46.1 µM]	.
O=C(c1cccs1)c1cn(CCOc2ccc(Cl)cc2)c2ccccc12	2%	.	-10%	.	.	0.4%	-3%[46.1 µM]	-8%[46.1 µM]
COc1cc(/C=C2\SC(=Nc3cccnc3)NC2=O)cc(OC)c1OC	.	-15%	-24%	0%	2%	.	?	?
Cn1cc(CN2CCC(n3nccc3NC(=O)Cc3ccccc3)CC2)cn1	.	-6%	-12%	-9%	5%	.	-12%	1%
c1cncc(-c2nn[nH]n2)c1	5%	4%	4%	-1%	4%	0.5%	3%	7%
COc1cccc(/C(O)=C2/C(=O)C(=O)N(CCN(C)C)C2c2ccccn2)c1 (stereo not given)	5%	-12%	6%	6%	-3%	-6.3%	2%	11%
CC(=O)c1ccc(Sc2ccccc2N)c([N+](=O)[O-])c1	.	-11%	-15%	0%	5%	.	.	.
OC(CN1CCc2ccccc2C1)c1ccccc1 (stereo not given)	.	-12%	0%	-4%	-6%	.	.	.
CCN1CCN(Cc2ccc(NC(=O)c3ccc(C)c(NC(=O)c4ccnnc4)c3)cc2C(F)(F)F)CC1	.	11%	-2%	-1%	0%	.	.	.
Cc1ccc2nc(NC(=O)CSCc3ccccc3)sc2c1	-6%	-14%	16%	-4%	2%	0.4%	23%	5%[46.1 µM]
CC12C(=O)N(Cc3ccco3)C(=O)C1C1c3ccccc3C2c2ccccc21 (stereo not given)	1%	-7%	?	0%	1%	-0.9%	-16%	?
CC1CCCN(C(=O)COc2ccc(Nc3ccccc3)cc2)C1 (stereo not given)	.	-20%	5%	-8%	-3%	.	-6%	?
Cn1c(CSCc2ccc(F)cc2)nnc1SCC(=O)Nc1cccc(C(=O)O)c1	.	6%	-21%	1%	2%	.	.	.
O=c1[nH]c(NCCO)nnc1Cc1ccc(Cl)cc1	.	-11%	6%	-1%	3%	.	5%	-1%
Cc1ccccc1NC(=O)CN1C(=O)c2cccnc2Oc2ccc(Cl)cc21	.	0%	0%	12%	-4%	.	.	.
COc1ccccc1C(C)NC(=O)c1ccc(S(=O)(=O)NCc2ccco2)cc1 (stereo not given)	.	30%	17%	5%	.	.	-6%	-11%
O=C(O)c1ccccc1NC(=O)C(Cc1ccccc1)N1C(=O)c2ccccc2C1=O (stereo not given)	.	-5%	-1%	-1%	5%	.	.	.
COc1ccc(N(C)S(=O)(=O)c2cccc(C(=O)N3CCN(Cc4ccc5c(c4)OCO5)CC3)c2)cc1	.	-3%	?	2%	.	.	?	?
CN1CCN(C(=O)C2=C[C@@H](c3ccc4c(c3)OCO4)C[C@@H](OCc3ccc(CO)cc3)O2)CC1	.	-11%	-6%	0%	1%	.	.	.
O=[N+]([O-])c1ccc(CN2CCOCCOCCOCC2)cc1	10%	3%	6%	3%	2%	0.5%	?	-3%
COc1ccc(COCC(O)CN2CCC(C(N)=O)CC2)cc1 (stereo not given)	.	-19%	6%	-1%	-4%	.	.	.
CCCOC(=O)c1ccc(Oc2c(-c3ccc(O)cc3O)n[nH]c2C)cc1	-2%	36%	-8%	-20%	-34%	-15%	?	-10%
Oc1ccc(N2CCN(C(c3ccccn3)c3nnnn3C3CCCC3)CC2)cc1 (stereo not given)	1%	-11%	.	-6%	12%	-0.3%	-21%	-13%
SMILES	Cruzain inh noDet	RE007 growth inh	StopGo reporter	SARS PLpro yeast	NS1 function inh	Cruzain inh Det	LASV entry inh	MARV entry inh
O=C1NN(c2ccccc2)C(=O)/C1=C\c1ccccc1OCC(=O)N1CCOCC1	-3%	16%	-8%	4%	25%	3.7%	-14%	0%
O=C(NC1CCCCC1)NC1(C(=O)N2CCN3CCCC3C2)CCCCC1 (stereo not given)	-12%	-9%	-13%	17%	-2%	2.6%	2%	0%
Cc1ccccc1NC(=O)NNC(=O)c1ccc2ccccc2c1	.	4%	16%	2%	15%	.	.	.
CC(=O)C(C(C)=O)c1c(Cl)c(O)c(O)c2c(C(=O)c3ccccc3)coc12	?	7%	?	-7%	-80%	-2.9%	7.1µM*	?
O=C(C1CC(=O)N(c2ccc(F)c(Cl)c2)C1)N1CCC2(CC1)OCCO2 (stereo not given)	0%	-9%	.	5%	-3%	10%	1%	15%
Cc1nc(N2CCC(C(N)=O)CC2)c2nnn(Cc3ccccc3)c2n1	-5%	10%	-8%	1%	-3%	-2.8%	-4%	8%
O=C(NC(Cc1ccccc1)C(=O)O)c1ccc(S(=O)(=O)N2CCCCC2)cc1 (stereo not given)	-2%	10%	20%	-2%	1%	1.4%	3%	-1%
Cc1onc(-c2c(Cl)cccc2Cl)c1C(=O)N1C=CC(C(F)(F)F)=NCC1	-4%	8%	-18%	3%	4%	5.1%	0%	?
O=C(Nc1ccc(Oc2ccc(NC(=O)C3CCCO3)cc2)cc1)C1CCCO1 (stereo not given)	3%	-16%	-7%	0%	-3%	-7.1%	2%	2%
O=C(O)CCNS(=O)(=O)c1ccccc1C(F)(F)F	.	-10%	4%	3%	.	.	5%	13%[46.1 µM]
O=C(NCCc1ccc(F)cc1)C(=O)NCC(c1ccco1)S(=O)(=O)c1cccs1 (stereo not given)	-1%	.	-24%	.	.	0.0%	?	.
O=C(NC1CC1)c1ccc(S(=O)(=O)NC2CCCCCC2)cc1	-1%	-11%	-10%	1%	-4%	2.4%	-11%	?
CCOC(=O)c1c(NC(=O)c2ccc(S(=O)(=O)N(C)CC3CCCO3)cc2)sc2c1CCN(C)C2 (stereo not given)	.	-8%	-14%	21%	-16%	.	.	.
O=C(c1ccc2c(c1)OCO2)N1CCC(Cc2ccccc2)CC1	.	-18%	-15%	-1%	-8%	.	?	24%
